TRPML1 agonist = human mucolipin-1 channel agonism; Q9GZU1; activation, % (no concentration beside the values); AID 624414; TRPML1-expressing cells, Ca2+ dye fluorescence, FDSS; host cell line not named in the record; reference of the full effect not given here; hit rate 0.12% among 410,000; in the data active = activation above about 50%; inconclusive = about 30% to 50%; inactive = below about 30%; further: 0% is about no effect; the text of the record puts the active cut at 80%
Target sequence (Q9GZU1 whole entry, looked up): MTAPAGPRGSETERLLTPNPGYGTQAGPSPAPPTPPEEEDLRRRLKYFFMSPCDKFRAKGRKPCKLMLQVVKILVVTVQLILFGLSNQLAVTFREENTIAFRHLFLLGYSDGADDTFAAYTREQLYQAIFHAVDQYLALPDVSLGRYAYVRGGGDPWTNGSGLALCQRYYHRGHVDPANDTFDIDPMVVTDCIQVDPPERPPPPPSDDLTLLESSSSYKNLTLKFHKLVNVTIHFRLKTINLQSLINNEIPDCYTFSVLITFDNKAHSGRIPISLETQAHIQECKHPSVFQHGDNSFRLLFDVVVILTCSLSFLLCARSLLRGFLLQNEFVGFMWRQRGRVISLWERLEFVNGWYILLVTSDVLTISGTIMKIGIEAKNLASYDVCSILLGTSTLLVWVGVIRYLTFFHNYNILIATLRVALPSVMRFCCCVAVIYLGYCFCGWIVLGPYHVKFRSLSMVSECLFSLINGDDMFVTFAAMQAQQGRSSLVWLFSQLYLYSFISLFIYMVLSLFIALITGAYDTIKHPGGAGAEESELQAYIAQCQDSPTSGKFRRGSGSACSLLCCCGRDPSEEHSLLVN
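Tetracycline-induced TRPML1-DL cells are seeded and incubated overnight before loading with a no-wash Ca2+ dye and quencher. Agonist activity is taken from the 110 s fluorescence read following compound pin-transfer on an FDSS, before EC80 54-4 challenge.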
Six1-Eya2 inh = inhibitors of human Six1/Eya2 interaction | Q15475+O00167 | AlphaScreen GST-Six1/His-Eya2 binding, biochemical; hits give low values; control for the full effect not named in the record | activity change, % (test concentration not listed) | hit rate 0.56% among 360,000 | AID 651725; in the data active = activity change below about -65%; inconclusive = about -30% to -65%; inactive = above about -30%; further: on the % scale 0 is the no-effect control and ±100 the full control effect; compound concentration not given in the record
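Homogeneous AlphaScreen proximity assay pairing GST-Six1 with His-tagged Eya2 (added as 5X mix: 250 nM and 500 nM) in 50 mM Tris pH 8.0, 300 mM NaCl, 1 mM TCEP. Glutathione donor and nickel acceptor beads; 1 h, 37 °C, dark.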
TRPV1 potentiator = enhances activation of the human vanilloid receptor TRPV1. hit rate 0.02% among 320,000. Q8NER1. AID 540277. TRPV1-expressing cells, Fluo-8 calcium influx, capsaicin EC20 potentiation; host cell line not named in the record; control for the full effect not named in the record. potentiation, % at 8.33 µM; active means potentiation above 80%; inconclusive means 30% to 80%; inactive means below 30%; further: 0% is about no effect
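Fluo-8 calcium influx in TRPV1-expressing cells, kinetic read (ex 480/em 520 nm). Compound added and read 3 min for agonist activity, followed by capsaicin at EC20 final and 2 min further read for enhancement.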
CtBP-E1A inh = CtBP/E1A binding inhibition | activity change, % (concentration not given with the values) | AlphaScreen GST-E1A/His-CtBP binding, 1536-well; hits give low values; control for the full effect not named in the record | AID 651724 | hit rate 0.49% among 340,000; in the data active means activity change below about -65%; inconclusive means about -30% to -65%; inactive means above about -30%; further: on the % scale 0 is the no-effect control and ±100 the full control effect
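In 5 uL wells, 23 nL compound meets equimolar GST-E1A and His-CtBP (5X stock 125 nM each) for 2 h, 37 °C. Beads (5X, 50 ug/mL) then 1 h, 37 °C, dark.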
TRPML1 blocker = blocks the human TRPML1 channel; Q9GZU1; TRPML1-inducible cells, Ca2+ dye fluorescence, FDSS; hits give low values; inhibition of EC80 agonist-evoked calcium signal; hit rate 0.02% among 390,000; activity change, negative = inhibition, % (no concentration beside the values); in the data active means activity change below about -50%; inconclusive means about -30% to -50%; inactive means above about -30%;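 further: stimulus is agonist 54-4 at its EC80 concentration; on the % scale 0 is the no-effect control and ±100 the full control effect; compound concentration not given in the record; the text of the record puts the active cut at -80%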
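Tet-induced TRPML1-DL cells loaded with Ca8 no-wash calcium dye were read kinetically on FDSS. Compound addition was followed by EC80 agonist 54-4 (4 uM final); inhibition was read over 110 s.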
D2 potentiator = positive allosteric modulators of human D2 dopamine receptor | P14416 | potentiation, % (no concentration beside the values) | AID 624464 | hit rate 0.23% among 360,000 | DiscoveRx D2 beta-arrestin cells, luminescence, 90 min; 100% = 57 uM dopamine signal; active = potentiation of 50% or more; inconclusive = 30% to 50%; inactive = 30% or less;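 further: compound concentration not given in the record; tested on top of an EC20 dose of dopamine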
Target sequence (P14416 whole entry, looked up): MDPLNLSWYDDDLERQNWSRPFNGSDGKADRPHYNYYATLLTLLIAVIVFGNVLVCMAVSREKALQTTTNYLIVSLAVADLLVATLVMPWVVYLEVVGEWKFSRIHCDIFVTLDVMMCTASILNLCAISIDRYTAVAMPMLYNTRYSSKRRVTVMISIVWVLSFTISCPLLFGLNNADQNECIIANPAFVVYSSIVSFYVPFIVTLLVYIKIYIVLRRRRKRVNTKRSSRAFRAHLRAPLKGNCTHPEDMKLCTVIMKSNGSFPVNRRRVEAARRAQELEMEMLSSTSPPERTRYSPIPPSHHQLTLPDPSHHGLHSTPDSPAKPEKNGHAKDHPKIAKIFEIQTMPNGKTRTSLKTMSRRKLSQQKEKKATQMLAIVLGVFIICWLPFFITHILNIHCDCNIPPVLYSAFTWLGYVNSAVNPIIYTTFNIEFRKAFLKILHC
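D2 cells co-treated with compound plus 50 nM dopamine (EC20) for 90 min at 37 deg C to detect potentiation. Beta-arrestin recruitment was read as enzyme-fragment luminescence after 1 h at ambient temperature. Full response was set by 57 uM dopamine.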
* marks the source's active call; other numbers are inactive results; ? = inconclusive; / = not tested or not shown.

[1] CC(C)(C)c1ccc(S(=O)(=O)NCc2ccc(C(=O)N3CCCC3)cc2)cc1
[2] CC(=O)c1ccccc1NS(=O)(=O)c1c(C)nn(-c2ccccc2)c1C
[3] Cc1ccc(S(=O)(=O)NCC(=O)N2CCN(S(=O)(=O)c3ccc(Cl)cc3)CC2)cc1C
[4] CCCCCn1c(SCC(=O)c2ccccc2)nc2cc(C(=O)NCc3ccco3)ccc2c1=O
[5] COc1ccc(Cl)cc1S(=O)(=O)N1CCCC(C(=O)NCc2ccccn2)C1 (configuration not stated)
[6] Cc1ccc(OC(C)C)c(CN(CCO)CCO)c1
[7] Cc1ccc2c(c1)C=CC(C)N2C(=O)c1ccccc1 (configuration not stated)
[8] CCN(CCO)C(=O)CC(c1ccccc1)c1cc(Br)ccc1O (configuration not stated)
entry no.	1	2	3	4	5	6	7	8
TRPML1 agonist	1.1	1.0	2.7	-0.3	-0.4	-0.3	2.1	0.1
Six1-Eya2 inh	0	2	8	3	-3	3	-11	-21
TRPV1 potentiator	5	2	8	9	8	6	-3	6
CtBP-E1A inh	4	3	6	9	0	8	2	-17
TRPML1 blocker	-5	26	4	4	-7	-22	0	-5
D2 potentiator	6	-3	14	-10	-6	-13	-25	-11

[9] COc1cc(C2NC(C(=O)O)Cc3c2[nH]c2ccccc32)cc(OC)c1OC (configuration not stated)
[10] CN(C)c1cccc(CNC(=O)c2csc([C@@H]3O[C@H](CO)[C@@H](O)[C@H]3O)n2)c1
[11] Cc1ccc2c(Cl)c(C)c(N3CCCC3)nc2n1
[12] COc1ccc(CCc2ccc3ccccc3n2)cc1
[13] Cc1ccc2nsnc2c1NC(=O)Cc1ccc(Cl)cc1
[14] C=CCn1c(SCC(=O)NNC(=S)Nc2ccccc2)nnc1-c1ccccc1
[15] Cc1ccc(N(C)S(=O)(=O)c2cccc(C(=O)OCC(=O)N(C)Cc3ccccc3)c2)cc1
[16] Cc1ccc(NS(=O)(=O)c2ccc(OCC(=O)NCc3ccco3)cc2)cc1
entry no.	9	10	11	12	13	14	15	16
TRPML1 agonist	-0.5	-0.3	1.5	-0.7	-0.2	0.0	1.1	3.0
Six1-Eya2 inh	-1	5	2	11	26	9	0	0
TRPV1 potentiator	-4	/	-17	/	-16	10	/	4
CtBP-E1A inh	5	1	6	21	-12	-10	0	-9
TRPML1 blocker	9	/	11	27	-12	10	-4	-3
D2 potentiator	-5	0	9	-9	6	-24	-5	1

[17] CCCC(C)NC(=O)c1sc2nc3n(c(=O)c2c1C)CCC3 (configuration not stated)
[18] COc1ccc(OC)c2sc(N(CCCN(C)C)C(=O)CCS(=O)(=O)c3ccccc3)nc12
[19] O=C(CCN1CCN(c2ccc(F)cc2)CC1)Nc1ccc(F)cc1
[20] NC[C@@H]1O[C@H](C23CC4CC(CC(C4)C2)C3)Cc2c1ccc(O)c2O
[21] CCn1cnc2cc(NCc3nc4ccccc4n3C)ccc21
[22] N/C(=N/S(=O)(=O)c1ccccc1)c1cccc([N+](=O)[O-])c1
[23] CCNC(=O)n1nccc1C(C)Oc1cccc(C(F)(F)F)c1 (configuration not stated)
[24] COc1ccc(NC(=O)C2(C)CCN2CC2CCCCC2)cc1OC (configuration not stated)
entry no.	17	18	19	20	21	22	23	24
TRPML1 agonist	0.0	0.1	0.3	0.8	-0.1	-0.9	-1.0	-0.6
Six1-Eya2 inh	-7	3	-4	-16	-12	5	19	-8
TRPV1 potentiator	-4	5	-25	26	6	1	-29	/
CtBP-E1A inh	/	0	-2	?	-14	0	14	-4
TRPML1 blocker	-10	-3	8	14	-11	-23	-3	/
D2 potentiator	-3	-11	-37	?	-4	3	8	-12

[25] CCC(=O)Nc1ccccc1N1CCN(c2ccc(F)cc2)CC1
[26] COc1ccc(CCN2CC(C(=O)NCCc3cccnc3)CCC2=O)cc1 (configuration not stated)
[27] CC(C)OCCc1cccc[n+]1[O-]
[28] Cc1ccc(C)c(N(CC(=O)Nc2ccccc2C(=O)NCc2ccco2)S(=O)(=O)c2ccccc2)c1
[29] COc1cccc(C(NC(C)=O)c2nc(-c3ccc(C)c(C)c3)cs2)c1 (configuration not stated)
[30] CN(C)n1cnc2ccsc2c1=O
[31] O=C(NCc1ccccc1Cl)C1CCCN1S(=O)(=O)c1ccccc1F (configuration not stated)
[32] CS(=O)(=O)NCCSCc1ccc(Cl)cc1
entry no.	25	26	27	28	29	30	31	32
TRPML1 agonist	0.6	0.8	0.0	2.1	1.4	0.2	-0.9	-0.9
Six1-Eya2 inh	-4	7	7	-5	-4	3	-14	-1
TRPV1 potentiator	16	3	/	10	/	-5	-6	?
CtBP-E1A inh	-23	0	4	-8	0	/	-24	7
TRPML1 blocker	26	6	/	29	16	0	1	3
D2 potentiator	0	-3	-4	-8	-8	0	-3	-12

[33] COc1ccc2c(c1)C=C(CN1CCN(C(C)C)C(CCO)C1)CO2 (configuration not stated)
[34] CC(C)c1ccccc1OCCCCCN1CCOCC1
[35] CN(C)C(=O)CN1C(=O)NC2(CCc3ccccc32)C1=O (configuration not stated)
[36] N#Cc1ccsc1NC(=O)c1cccc(-n2cnnn2)c1
[37] O=C(Nc1nnc(SCC(=O)N2CCCc3ccccc32)s1)c1ccc2ccccc2c1
[38] N#Cc1c(C(F)(F)F)cc(-c2ccc(F)cc2)[nH]c1=O
[39] CCNC(=S)N1CCN=C1Nc1nc(C)cc(C)n1
[40] O=S(=O)(Nc1ccccn1)c1cccs1
entry no.	33	34	35	36	37	38	39	40
TRPML1 agonist	-0.9	0.7	0.6	3.1	-0.1	3.9	-0.4	-0.8
Six1-Eya2 inh	-6	1	1	-15	-4	3	3	-2
TRPV1 potentiator	9	/	-22	6	16	0	-1	-3
CtBP-E1A inh	4	2	7	-9	-6	1	4	-15
TRPML1 blocker	-4	27	3	6	-13	14	-8	-17
D2 potentiator	-10	-24	1	-11	-20	2	-11	3

Quoted from above for reference:
[5] COc1ccc(Cl)cc1S(=O)(=O)N1CCCC(C(=O)NCc2ccccn2)C1 (configuration not stated)
[6] Cc1ccc(OC(C)C)c(CN(CCO)CCO)c1
[7] Cc1ccc2c(c1)C=CC(C)N2C(=O)c1ccccc1 (configuration not stated)
entry no.	5	6	7
TRPML1 agonist	-0.4	-0.3	2.1
Six1-Eya2 inh	-3	3	-11
TRPV1 potentiator	8	6	-3
CtBP-E1A inh	0	8	2
TRPML1 blocker	-7	-22	0
D2 potentiator	-6	-13	-25

The listing continues.
[41] CCOC(=O)N1CCN(c2ccc(S(=O)(=O)N3CCOCC3)cc2[N+](=O)[O-])CC1
[42] O=C(c1ccccc1-c1nc2ccccc2[nH]1)N1CCOCC1
[43] CC(Sc1nnnn1-c1ccccc1)C(=O)Nc1ccc(N2CCN(C)CC2)cc1 (configuration not stated)
[44] O=C(Cn1nc(Cc2cccnc2)c2ccccc2c1=O)Nc1ccc2c(c1)OCO2
[45] COc1ccc(N(C(=O)CNC(=O)c2ccco2)C(C(=O)NCC2CCCO2)c2ccccc2)cc1 (configuration not stated)
[46] CCN/N=C(\Cc1nc2ccccc2[nH]1)c1ccccc1
[47] CCOC(=O)C1C(=O)NC(N2CCCCC2)=NC1c1ccco1 (configuration not stated)
[48] CCOC(=O)[C@H](CCc1ccccc1)N[C@H]1CCc2ccccc2N(CC(=O)O)C1=O
entry no.	41	42	43	44	45	46	47	48
TRPML1 agonist	0.7	-0.2	-0.5	-0.3	-0.8	-1.0	0.0	-0.8
Six1-Eya2 inh	-5	2	-10	-1	8	-2	7	-4
TRPV1 potentiator	4	-1	5	-21	6	-3	-2	/
CtBP-E1A inh	3	1	-5	-10	16	-1	-2	2
TRPML1 blocker	12	20	-13	-7	2	-11	-15	0
D2 potentiator	-4	6	-11	-5	-8	-20	-14	-15

Part of the list above, showing only TRPML1 agonist:
| # | compound | TRPML1 agonist |
| --- | --- | --- |
| 41 | CCOC(=O)N1CCN(c2ccc(S(=O)(=O)N3CCOCC3)cc2[N+](=O)[O-])CC1 | 0.7 |
| 42 | O=C(c1ccccc1-c1nc2ccccc2[nH]1)N1CCOCC1 | -0.2 |

The results go on.
[49] Oc1ccc(Br)cc1/C=N/n1c(-c2ccccc2)n[nH]c1=S
[50] O=C(c1cc(S(=O)(=O)N2CCOCC2)ccc1F)N1CCCc2ccccc21
[51] Cc1cc2c(cc1C)CSC(c1c(O)ccc3ccccc13)SC2
[52] NC(c1csc(Nc2ccc(C(=O)c3ccccc3)cc2)n1)C1CCCCC1 (configuration not stated)
[53] O=c1[nH]c(CS(=O)(=O)c2ccccc2)nc2ccccc12
[54] COc1ccc(CCN=C(N)NS(=O)(=O)c2ccc(F)cc2)cc1
[55] CCNc1nc2c(cnn2C)c(=O)[nH]1
[56] Cc1sc2ncn(Cc3ccccc3F)c(=O)c2c1C
entry no.	49	50	51	52	53	54	55	56
TRPML1 agonist	/	-0.6	1.7	1.7	-0.4	-0.2	0.8	1.3
Six1-Eya2 inh	0	11	-13	-9	10	0	0	-1
TRPV1 potentiator	?	-14	-18	/	-11	-2	/	4
CtBP-E1A inh	/	4	-9	0	2	-10	-16	6
TRPML1 blocker	/	15	-6	/	-19	-5	-7	-5
D2 potentiator	-31	-8	-13	-8	-11	1	-7	1

[57] COc1ccc(CC(=O)NCC(=O)NC(Cc2ccccc2)C(=O)O)cc1 (configuration not stated)
[58] Cc1cccc(NC(=O)c2ccc3ccccc3n2)n1
[59] CC(=O)NC1C(=O)N=C(SCC(=O)NC(C)c2ccccc2)NC1=O (configuration not stated)
[60] Cc1cc(C)c2nc(C(F)(F)F)nc(NCCCN3CCCC3=O)c2c1
[61] COc1cccc2sc(NNC(=O)c3nc4ccccc4s3)nc12
[62] CC1(C(=O)NS(=O)(=O)c2ccccc2)CCN1C(=O)CCc1ccc(Cl)cc1Cl (configuration not stated)
[63] Cc1cnc(=O)[nH]c1SCc1cccc([N+](=O)[O-])c1
[64] COc1ccc(C(=O)N/C(=C\c2ccccc2)C(=O)Nc2ccc(C(=O)O)cc2)cc1
entry no.	57	58	59	60	61	62	63	64
TRPML1 agonist	-1.5	2.5	-0.3	3.1	-0.5	-1.0	0.5	0.2
Six1-Eya2 inh	8	10	1	-2	-28	-2	4	-5
TRPV1 potentiator	18	-17	9	-13	?	/	-1	-1
CtBP-E1A inh	3	15	-14	1	-16	5	/	/
TRPML1 blocker	1	11	-3	4	-7	/	14	9
D2 potentiator	-2	4	-12	-8	-9	1	-6	-6

[65] Cc1ccc(S(=O)(=O)Nc2ccc3c(c2)nc(CCN2CCCCC2)n3C)cc1
[66] C/C(=N\Nc1ccccc1)c1cccc(N)c1
[67] O=C(c1ccccc1)N1N=C(c2ccccc2)CC1(O)C(F)(F)F (configuration not stated)
[68] Cc1ccc(NC(=O)CNC(=O)Cc2cccc3ccccc23)nc1
[69] CC(=O)Nc1ccc(NC(=O)C2CCN(S(C)(=O)=O)CC2)cc1
entry no.	65	66	67	68	69
TRPML1 agonist	0.6	-0.7	2.4	0.2	0.0
Six1-Eya2 inh	6	5	4	-5	-2
TRPV1 potentiator	-1	6	2	30	/
CtBP-E1A inh	3	-24	/	-12	3
TRPML1 blocker	9	-7	30	5	10
D2 potentiator	-9	8	-8	-5	-8
